MITF inhib: inhibitors of MITF, primary screen, MITF inhibitor project, cell-based, luminescence; inhibition, % (test concentration not listed); TRPM1 promoter luciferase, 24 h; 37,000 tested, 0.28% active; AID 2240, 2010;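 active = most replicates at 85% or more, or half of them and the mean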;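 also: human melanocyte line stably carrying TRPM1 promoter luciferase reporter; 0% = vehicle wells and 100% = a positive control; the first replicate is given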
YB-1 expression: inhibitors of YB-1 gene expression, primary screen, cell-based, fluorescence | U2OS, qRT-PCR YB-1 vs CDIP delta delta Cp, 16 h; stronger effect = higher value; zero = DMSO, each unit about twofold | delta delta Cp (YB-1 minus CDIP) (no concentration beside the values) | 30,000 tested, 0.37% active | AID 434959, 2010;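 active = delta delta Cp rounded down to an integer at or above 3, about 3 SD of DMSO wells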;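 also: higher means less YB-1 transcript or more CDIP transcript relative to DMSO; stock transfer was 100 nL into about 100 µL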
PD-1 reverse act: activators reversing PD-1 mediated T-cell inhibition, primary screen, luminescence, primary human CD4 T cells, PD-L1 beads; activation, % (no concentration beside the values); CellTiter-Glo 96 h; 29,000 tested, under 10 active;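 active = replicate mean of 50% or more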;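 also: 0% = median vehicle wells and 100% = positive control; 100 nL library stock added to about 50 µL; numbers are from one replicate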
Hedgehog inh: Hedgehog pathway signaling inhibitors, primary screen, luminescence, Shh-LIGHT2 cells, Gli-luciferase; AID 2313, 2010; 22,000 tested, 2.1% active; inhibition, % (test concentration not listed); Shh-LIGHT2 Gli-luciferase reporter, 30 h;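 active = replicate mean of 65% or more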;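 also: pathway switched on by Shh-conditioned medium diluted 1 in 25 in low serum; 100 nL library stock added to about 40 µL; 0% = median of neutral wells and 100% = positive control level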
Active calls of the source: *; . = no result given.

Under each structure – Hedgehog inh	YB-1 expression	MITF inhib	PD-1 reverse act
O=C(O)C1CCCN(CCC=C(c2ccccc2)c2ccccc2)C1 (centres undefined)
  -57.1	-0.433	1.1	.
CCN(CC)C(=O)CSc1nc2ccccc2c(=O)[nH]1
  .	.	-13.2	1.2
CC(C)NC(=O)Nc1ccc2c(c1)C(=O)N([C@H](C)CO)C[C@H](C)[C@H](CN(C)S(=O)(=O)c1cn(C)cn1)O2
  .	-0.199	-6.6	.
COc1ccc(CN(C)C[C@@H]2OCCCC[C@@H](C)Oc3ccc(NS(=O)(=O)c4ccc(C)cc4)cc3C(=O)N([C@H](C)CO)C[C@@H]2C)cc1
  .	0.147	-15.6	-0.6
C[C@@H]1CN([C@H](C)CO)C(=O)c2cc(NC(=O)CCN3CCOCC3)ccc2O[C@H]1CN(C)Cc1ccc(Oc2ccccc2)cc1
  -15.0	0.366	3.4	-0.5
Cc1noc(C)c1NC(=O)N(C)C[C@H]1Oc2ccc(NC(=O)C3CC3)cc2CC(=O)N([C@H](C)CO)C[C@H]1C
  -28.9	0.0577	-3.0	0.3
COc1ccc(S(=O)(=O)Nc2ccc3c(c2)CC(=O)N([C@@H](C)CO)C[C@H](C)[C@@H](CN(C)Cc2ccc(Oc4ccccc4)cc2)O3)cc1
  17.6	-0.327	13.3	-1.0
C[C@@H]1CCCCO[C@H](CN(C)C)[C@@H](C)CN([C@H](C)CO)C(=O)c2cc(NC(=O)Nc3ccc(F)cc3)ccc2O1
  -9.0	-0.226	1.4	0.2
Cc1ccccc1NC(=O)CSc1ncnc2scc(-c3ccc(Cl)cc3)c12
  .	.	-9.2	-2.4
C[C@H]1CN([C@@H](C)CO)C(=O)c2cc(NC(=O)Nc3cccc4ccccc34)ccc2O[C@H]1CN(C)C(=O)NC1CCCCC1
  .	-0.252	1.6	-0.7
CC(=O)O[C@@H]1O[C@@H]2CO[C@@H](c3ccccc3)O[C@H]2[C@H](OC(C)=O)[C@H]1OC(C)=O
  -43.5	-0.485	2.9	0.7
COc1ccc(S(=O)(=O)Nc2ccc3c(c2)CC(=O)N([C@H](C)CO)C[C@@H](C)[C@@H](CN(C)S(=O)(=O)c2ccccc2)O3)cc1
  -21.5	-0.194	-8.3	0.7
CCc1ccc(S(=O)(=O)NCC(=O)O)cc1
  .	.	-2.6	2.3
C[C@H]1CN([C@@H](C)CO)C(=O)c2cc(NC(=O)Cc3cn(C)c4ccccc34)ccc2O[C@H]1CN(C)C(=O)Nc1ccc2c(c1)OCO2
  .	0.0663	10.0	.
COC(=O)c1cc(OC)c(OC)cc1NC(=O)COc1ccc(Cl)cc1Br
  .	.	-15.5	-7.1
C[C@@H]1CCCCO[C@H](CN(C)C(=O)Nc2cccc3ccccc23)[C@@H](C)CN([C@H](C)CO)C(=O)c2cc(NS(=O)(=O)c3cn(C)cn3)ccc2O1
  -28.7	-0.0285	7.2	.
C[C@@H]1CN([C@@H](C)CO)C(=O)c2cccc(NC(=O)c3cnccn3)c2O[C@@H]1CN(C)C
  -106.8	-0.158	-2.0	1.5
Cc1c(S(=O)(=O)c2ccc(Cl)cc2)csc1C(=O)Nc1ccc(F)cc1F
  39.5	-0.83	18.6	0.7
O=c1cc(-c2ccccc2)oc2ccccc12
  34.9	-0.667	-100.0	-1.3
C[C@@H]1CN([C@@H](C)CO)C(=O)c2cc(NC(=O)Cn3cnnn3)ccc2O[C@H]1CN(C)C(=O)Nc1ccccc1
  -10.5	0.261	6.7	0.4
C[C@@H]1CN([C@@H](C)CO)C(=O)c2cccc(NC(=O)NC3CCCCC3)c2O[C@@H]1CN(C)Cc1ccc(C(F)(F)F)cc1
  -63.5	-0.0657	8.1	0.0
C[C@@H]1CN([C@H](C)CO)C(=O)c2cc(NC(=O)Nc3ccccc3)ccc2O[C@@H]1CN(C)S(C)(=O)=O
  -13.5	-0.161	-4.4	0.3
C[C@H]1CN([C@@H](C)CO)C(=O)Cc2cc(NC(=O)CCCCCC(=O)Nc3ccccc3N)ccc2O[C@H]1CN(C)C(=O)NC1CCCCC1
  .	0.0744	-27.5	2.5
C[C@@H]1CN([C@@H](C)CO)C(=O)c2cccc(NS(=O)(=O)c3ccccc3)c2O[C@@H]1CN(C)C(=O)Nc1cccc2ccccc12
  4.4	-0.402	9.6	0.4
COC(=O)C(C)Nc1cccc(Br)c1 (centres undefined)
  .	-0.0605	-16.1	-0.4
C[C@H]1CN([C@@H](C)CO)C(=O)c2cc(NC(=O)c3ccncc3)ccc2O[C@@H]1CN(C)Cc1ccc(-c2ccccc2)cc1
  29.6	0.26	-4.8	0.8
COc1ccc(S(=O)(=O)Nc2ccc3c(c2)C(=O)N([C@@H](C)CO)C[C@H](C)[C@H](CN(C)S(=O)(=O)c2cccs2)O3)cc1
  .	-1	-23.7	3.4
CCOc1cccc(-c2nnc(SCC(=O)n3c4c(c5ccccc53)CCCC4)n2C)c1
  .	.	-10.0	-0.1
OC(COc1ccccc1Cl)Cn1nnc2ccccc21 (centres undefined)
  .	.	-33.5	2.8
CN(CCc1ccccn1)S(=O)(=O)c1ccc2c3c(cccc13)C(=O)N2
  .	.	-18.4	-1.2

Reformatted: results already given.
structure	Hedgehog inh	YB-1 expression	MITF inhib	PD-1 reverse act
C[C@@H]1CN([C@@H](C)CO)C(=O)c2cc(NC(=O)Cn3cnnn3)ccc2O[C@H]1CN(C)C(=O)Nc1ccccc1	-10.5	0.261	6.7	0.4
C[C@@H]1CN([C@@H](C)CO)C(=O)c2cccc(NS(=O)(=O)c3ccccc3)c2O[C@@H]1CN(C)C(=O)Nc1cccc2ccccc12	4.4	-0.402	9.6	0.4
C[C@@H]1CN([C@@H](C)CO)C(=O)c2cccc(NC(=O)c3cnccn3)c2O[C@@H]1CN(C)C	-106.8	-0.158	-2.0	1.5

Additional structures follow.
Under each structure – Hedgehog inh	YB-1 expression	MITF inhib	PD-1 reverse act
c1ccc(-c2ccc3ccccc3n2)nc1
  -163.3	-0.214	39.9	-2.5
C[C@H]1CN([C@@H](C)CO)C(=O)c2cccc(NS(=O)(=O)c3ccccc3)c2O[C@@H]1CN(C)Cc1ccc2c(c1)OCO2
  -27.3	-0.225	-16.5	0.7
C[C@@H]1CN([C@@H](C)CO)C(=O)c2cc(NC(=O)CCCN(C)C)ccc2O[C@H]1CN(C)C(=O)Nc1ccc2c(c1)OCO2
  -61.9	0.152	1.6	-0.7
C[C@H](CO)N1C[C@H](C)[C@H](CN(C)S(=O)(=O)c2cccs2)Oc2ccc(NC(=O)Nc3cccc4ccccc34)cc2C1=O
  -8.3	-1.27	-30.5	-0.9
Cc1noc(C)c1S(=O)(=O)Nc1ccc2c(c1)C(=O)N([C@@H](C)CO)C[C@@H](C)[C@H](CN(C)Cc1ccc(C(F)(F)F)cc1)O2
  -7.0	-0.401	7.4	-0.3
COc1ccc(CN(C)C[C@H]2Oc3ccc(NC(=O)Nc4ccc(F)cc4)cc3C(=O)N([C@H](C)CO)C[C@H]2C)cc1
  .	0.194	4.5	-1.2
C[C@H](CO)N1C[C@H](C)[C@H](CN(C)C(=O)NC2CCCCC2)Oc2c(NC(=O)c3ccc(-c4nccs4)cc3)cccc2C1=O
  -10.3	0.712	5.9	.
Cc1cc(C(=O)Nc2cccc3c2O[C@H](CN(C)Cc2ccc4c(c2)OCO4)[C@H](C)CN([C@@H](C)CO)C3=O)n(C)n1
  24.5	-0.11	-10.8	-0.8
CSc1nc(O)cc(=O)[nH]1
  8.6	-0.172	0.9	1.7
C[C@H](CO)N1C[C@H](C)[C@H](CN(C)C(=O)Nc2ccc(F)cc2)Oc2ccc(NC(=O)CCC(F)(F)F)cc2C1=O
  -13.1	-0.0475	-9.9	-1.2
CN1CCN(CCC=C2c3ccccc3Sc3ccc(S(=O)(=O)N(C)C)cc32)CC1
  24.3	-0.257	-7.0	.
Cc1ccc(O)c(NC(=O)c2nc3ncccn3n2)c1
  .	.	-21.5	2.5
Oc1ccc([C@H]2Oc3cc(O)cc(O)c3C[C@H]2O)cc1
  18.0	0.0264	-4.2	.
COc1ccc(S(=O)(=O)Nc2cccc3c2O[C@@H](CN(C)C(=O)Nc2ccc4c(c2)OCO4)[C@H](C)CN([C@H](C)CO)C3=O)cc1
  32.8	-0.413	-5.6	3.4
CC(C)NC(=O)N(C)C[C@@H]1Oc2ccc(NC(=O)C3CC3)cc2CC(=O)N([C@H](C)CO)C[C@H]1C
  31.8	0.0792	1.7	2.2
O=c1cc(-c2ccccc2)nc2scc(-c3ccccc3)n12
  -57.1	-0.582	-25.1	-1.2
CNC[C@@H]1Oc2c(NS(=O)(=O)c3ccc(C)cc3)cccc2C(=O)N([C@@H](C)CO)C[C@H]1C
  -16.6	-0.168	-3.2	1.0
C[C@@H]1CN([C@H](C)CO)C(=O)c2cccc(NS(=O)(=O)c3ccc(F)cc3)c2O[C@@H]1CN(C)Cc1ccncc1
  18.7	-0.656	-4.1	.
COc1ccc(S(=O)(=O)Nc2ccc3c(c2)C(=O)N([C@@H](C)CO)C[C@@H](C)[C@@H](CN(C)S(C)(=O)=O)O3)cc1
  -10.4	0.185	2.9	1.6
O=C(c1nn2c(C(F)(F)F)cc(-c3cccs3)nc2c1Cl)N1CCCc2ccccc21
  46.7	-0.0362	-18.9	-16.2
COC(=O)[C@@H](N)CSC/C=C(\C)CC/C=C(\C)CCC=C(C)C
  -29.4	0.132	-3.4	3.6
COc1ccccc1C(NC(C)=O)c1c(O)ccc2ccccc12 (centres undefined)
  .	.	-7.3	-4.0
C[C@H]1CN([C@@H](C)CO)C(=O)c2cc(NC(=O)CCCN(C)C)ccc2O[C@H]1CN(C)Cc1ccc(-c2ccccc2)cc1
  20.2	-0.524	-1.8	-0.7
C[C@H]1CN([C@@H](C)CO)C(=O)c2cccc(NC(=O)Nc3ccccc3)c2O[C@H]1CN(C)C
  -10.0	0.0978	4.6	1.5
CC(C)NC(=O)N(C)C[C@@H]1Oc2ccc(NS(=O)(=O)c3ccc(F)cc3)cc2CC(=O)N([C@H](C)CO)C[C@H]1C
  -27.0	0.0927	-7.3	2.1
COc1ccc(CNc2nc3nc(C)cc(=O)n3[nH]2)cc1OC
  .	.	9.4	1.4
Cc1cc(-c2cccs2)c(C#N)c(SCC(=O)Nc2cccc(F)c2)n1
  .	.	2.1	-0.9
Cc1noc(C)c1NC(=O)N(C)C[C@H]1Oc2ccc(NC(=O)CCN3CCOCC3)cc2CC(=O)N([C@H](C)CO)C[C@H]1C
  -5.6	0.266	2.3	1.1
C[C@H](CO)N1C[C@H](C)[C@H](CN(C)C(=O)NC2CCCCC2)Oc2ccc(NC(=O)Cc3cn(C)c4ccccc34)cc2CC1=O
  19.3	-0.287	2.7	.
C[C@H]1CN([C@@H](C)CO)C(=O)c2cccc(NS(=O)(=O)c3ccc(Cl)cc3)c2O[C@H]1CN(C)C(=O)Nc1ccccc1
  -11.6	-0.0248	-6.8	-2.0

(listing goes on)
Under each structure – Hedgehog inh	YB-1 expression	MITF inhib	PD-1 reverse act
CC(C)NC(=O)Nc1cccc2c1O[C@H](CN(C)C(=O)Nc1ccc(C(F)(F)F)cc1)[C@@H](C)CN([C@@H](C)CO)C2=O
  -9.8	0.252	-1.8	-0.8
C[C@@H]1CN([C@H](C)CO)C(=O)c2cccc(NC(=O)c3nc4ccccc4s3)c2O[C@H]1CN(C)S(=O)(=O)c1ccc(Cl)cc1
  11.0	0.527	11.9	-4.6
N#CC(C(=O)c1ccco1)c1nc2ccccc2[nH]1 (centres undefined)
  5.4	0.683	-7.5	-0.4
Cc1noc(C)c1NC(=O)N(C)C[C@@H]1Oc2ccc(NC(=O)NC(C)C)cc2C(=O)N([C@H](C)CO)C[C@H]1C
  -1.8	0.0116	-4.5	1.7
COc1ccc(S(=O)(=O)N(C)C[C@H]2Oc3ccc(NC(=O)Nc4ccc5c(c4)OCO5)cc3C(=O)N([C@@H](C)CO)C[C@H]2C)cc1
  41.3	-0.325	-8.9	0.1
COc1ccc(NC(=O)N(C)C[C@@H]2Oc3ccc(N(C)C)cc3C(=O)N([C@@H](C)CO)C[C@@H]2C)cc1
  .	-0.385	-6.1	1.6
Cc1noc(C)c1NC(=O)Nc1ccc2c(c1)C(=O)N([C@H](C)CO)C[C@H](C)[C@@H](CN(C)Cc1ccncc1)OCCCC[C@@H](C)O2
  48.6	0.601	-6.2	1.5
CCN(CC(=O)Nc1cccc(Cl)c1C)S(=O)(=O)c1ccc(C)cc1
  .	.	15.7	-1.1
C[C@@H]1CN([C@H](C)CO)C(=O)c2cccc(NC(=O)c3ccc(-c4nccs4)cc3)c2O[C@H]1CN(C)S(=O)(=O)c1cn(C)cn1
  -13.4	-0.0288	-5.0	2.0
C[C@@H]1CN([C@@H](C)CO)C(=O)c2cccc(NC(=O)Nc3ccccc3)c2O[C@H]1CN(C)Cc1ccc(Oc2ccccc2)cc1
  -108.5	-0.209	58.1	-3.8
CC(C)(C)c1ccc(OC(=O)CCN2C(=O)C3C4C=CC(C5CC45)C3C2=O)cc1 (centres undefined)
  .	.	-3.1	-3.4

Source: PubChem BioAssay

Not all compounds are listed; rates above refer to the full screens.
